Screening results from PubChem.
Vif A3G: HIV-1 Vif–A3G interaction blockers – biochemical, TR-FRET, GST-Vif 1-94, biotin-A3G peptide, dose response retest, primary screen (AID 1117319); TR-FRET GST-Vif / biotin-A3G peptide binding; higher % means a stronger effect; test concentration not given here; strong numbers were not always called active; inhibition, %; hits with a dose series show IC50 in µM; 260,000 tested, 0.57% active;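 active means above the screen mean plus three standard deviations and confirmed in dose response; inconclusive means results disagree or hit not tested in dose response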;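 further: Vif residues 1-94 fused to GST binding biotinylated APOBEC3G peptide 110-148; 0% = full assay without inhibitor and 100% = GST in place of GST-Vif; retest series ran down from 100 µM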
AF4-AF9 inh: MLL-AF4/AF9 protein interaction inhibition | P42568 | AlphaScreen, biotin-AF4 peptide binding to FLAG-AF9 | inhibition, % at 10 µM | 350,000 tested, 0.47% active | AID 651704;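 active means every replicate reaching a set inhibition limit, whatever the replicate mean, cut at about 25% in these data; inconclusive means mean inhibition reaches that limit but some replicates miss it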;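 further: 0% = plate neutral control median and 100% = total signal loss; the record names both 10 and 1 µM as test concentration; the first replicate is given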
HNF4A DNA FP: change in binding of human HNF4 alpha to DNA; 360,000 tested, 0.3% active; HNF4a-FITC DNA binding, fluorescence polarization, 1 h; AID 1224865; P41235; activity change, % at 10 µM; in the data active means activity change above about 30%, passing the limit was not always enough;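 further: controls were the assay level and a saturating level of protein; the project sought stronger binding though the title names inhibitors; some compounds called inactive have numbers as strong as hits; positive values seem to mean higher polarization but the record does not say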
Target sequence (P41235 whole entry, looked up): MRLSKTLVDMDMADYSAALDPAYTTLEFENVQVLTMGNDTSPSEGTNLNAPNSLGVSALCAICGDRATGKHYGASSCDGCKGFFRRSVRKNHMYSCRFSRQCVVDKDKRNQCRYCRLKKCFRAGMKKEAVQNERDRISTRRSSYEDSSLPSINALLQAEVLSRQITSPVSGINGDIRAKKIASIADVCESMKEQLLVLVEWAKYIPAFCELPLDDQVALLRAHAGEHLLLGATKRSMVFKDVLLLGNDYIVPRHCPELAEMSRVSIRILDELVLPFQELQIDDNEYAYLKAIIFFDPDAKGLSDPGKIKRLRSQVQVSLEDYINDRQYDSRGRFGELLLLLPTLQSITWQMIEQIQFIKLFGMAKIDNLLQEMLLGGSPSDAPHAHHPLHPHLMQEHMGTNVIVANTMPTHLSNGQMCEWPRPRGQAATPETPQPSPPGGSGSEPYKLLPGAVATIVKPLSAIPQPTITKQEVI
RanGTP-Impb inh: inhibitors of RanGTP-importin-beta interaction, primary screen, biochemical, FRET, CFP-Ran, YFP-importin-beta, homogeneous; cell-free CFP-Ran/YFP-importin-beta FRET ratio; inhibition, % (test concentration not listed); 300,000 tested, 1.1% active;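 active means most replicates above 15%; inconclusive means exactly half above 15%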;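 further: 0% = DMSO wells and 100% = Ran loaded with GDP instead of GTP; wells of about 40 µL received 100 nL stock; the first replicate is given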
UCH37 inh: blocks the human deubiquitinase UCH37 | Q9Y5K5 | purified proteasome/UCH37, Ub-AMC cleavage fluorescence | inhibition, % (test concentration not listed) | 330,000 tested, 0.33% active;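 active means mean of two replicates above 20%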;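 further: 0% = compound-free wells with enzyme and 100% = wells lacking proteasome; stock transfer was 100 nL into about 20 µL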
Target sequence (Q9Y5K5 whole entry, looked up): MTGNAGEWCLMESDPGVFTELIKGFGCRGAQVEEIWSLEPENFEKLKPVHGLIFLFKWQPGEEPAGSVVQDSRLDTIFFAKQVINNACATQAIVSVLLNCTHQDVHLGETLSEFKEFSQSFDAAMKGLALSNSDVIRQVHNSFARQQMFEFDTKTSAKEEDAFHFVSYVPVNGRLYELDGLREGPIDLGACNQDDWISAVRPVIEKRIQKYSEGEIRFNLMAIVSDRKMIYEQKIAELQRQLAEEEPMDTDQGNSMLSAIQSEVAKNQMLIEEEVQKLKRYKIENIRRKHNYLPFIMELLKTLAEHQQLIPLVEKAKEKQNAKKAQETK
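Reagent: Ub-AMC substrate; assay system: Proteasome-associated human UCH37 deubiquitinase; controls: no-proteasome and no-compound wells; read-out: % inhibition of Ub-AMC cleavage fluorescence; timing: 30 min preincubation with enzyme, 25 min cleavage at room temperature; signal: AMC fluorescence from Ub-AMC cleavage, excitation 355 nm, emission 460 nm; buffer or medium: Tris-HCl pH 7.4 plus ovalbumin, ATP-MgCl2, DTT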
FGF22 binding: binders of recombinant human FGF22 by thermal shift; SYPRO orange fluorescence; percent of sucrose octasulfate shift, DMSO zero; 340,000 tested, 1.5% active; AID 651658; calls only at 9.99 µM;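 active means melting point raised past a set limit in the mean and every replicate; inconclusive means no clear call; three in four hits are not shown here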
Target sequence (Q9HCT0 whole entry, looked up): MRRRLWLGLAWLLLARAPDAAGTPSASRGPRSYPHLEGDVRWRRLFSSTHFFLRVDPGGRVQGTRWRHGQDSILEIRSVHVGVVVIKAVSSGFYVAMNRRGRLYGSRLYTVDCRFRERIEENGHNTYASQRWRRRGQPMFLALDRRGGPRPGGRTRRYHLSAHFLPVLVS
E coli growth: E. coli growth inhibition; Escherichia coli growth, OD600, 23 h; stronger effect = lower value; 330,000 tested, 0.21% active; OD600 absorbance (test concentration not listed);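 active means OD600 absorbance below the run mean of sample wells minus 3.6 SD, in any replicate, cut at about 0.56 in these data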;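 further: stock transfer was 300 nL into about 60 µL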
* = called active by the depositor; i = inactive; ? = inconclusive; / = not tested or not shown; & = joins results of further samples. A portion of the library, so the mix of outcomes need not match the whole.

SMILES	UCH37 inh	HNF4A DNA FP	RanGTP-Impb inh	E coli growth	AF4-AF9 inh	FGF22 binding	Vif A3G
Cc1ccc(C(=O)C2CCN(S(=O)(=O)c3c(C)noc3C)CC2)cc1	4.4	2.5	3.4	0.72	0.1	i	3%
C=CCNC(=O)CC1C(=O)NCCN1Cc1c(F)cccc1Cl (stereo not drawn)	-0.1	2.3	2.2	0.63	-0.6	i	2%
O=[N+]([O-])c1cc(/C=N/O)ccc1Oc1cccc(Cl)c1	/	-0.5	-0.1	/	5.7	i	11%
CC(C)Oc1ccc(C(=O)O)cc1	/	-0.2	0.8	/	0.4	i	4%
CS(=O)(=O)c1ccc(C(=O)NCCN2C(=O)S/C(=C\c3cccnc3)C2=O)cc1[N+](=O)[O-]	7.1	-1.7	2.8	0.69	2.6	i	28%
Cc1cccc(NC(=O)CSc2nnc(C)c(=O)n2N)c1	2.3	-1.1	8.6	0.7	-1.8	i	2%
COC(=O)c1cccc(NC(=O)Cn2cnc3ccccc3c2=O)c1	5.2	2.4	2.4	0.68	2.8	i	-7%
O=C(NCc1ccccc1)C(c1cccnc1)N(C(=O)c1ccccn1)c1ccccc1F (stereo not drawn)	1.5	1.3	1.0	0.73	-1.4	i	/
CC(=O)c1ccc(C(=O)N(C)C2CCCN(Cc3ccccc3F)C2)s1 (stereo not drawn)	/	-3.1	-2.2	/	-0.6	i	/
COc1cc(/C=C2\C(=N)N3N=C(C(C)C)SC3=NC2=O)ccc1OCCOc1ccc(NC(C)=O)cc1	1.9	1.2	1.7	0.69	-9.1	i	5%
COCCCn1c(C2CCCCC2)nc2oc3cc(OC)ccc3c(=O)c2c1=O	2.7	4.3	-3.9	0.72	/	/	2%
COCCCn1c(SCC(=O)N2CCCC2=O)nc2ccccc2c1=O	/	2.7	/	/	-2.2	i	-4%
Cc1cnc(C(=O)OCC(=O)NCc2ccc(Cl)cc2)cn1	0.7	3.4	/	0.72	-3.4	i	/
CN(Cc1ccc(F)cc1)C(=O)c1cccc(S(=O)(=O)N2CCN(Cc3ccccc3)CC2)c1	3.3	0.2	1.4	0.62	-5.0	i	3%
CC(C)(CO)Nc1ncnc2onc(-c3ccc(F)cc3)c12	5.5	-2.3	-0.2	0.67	1.3	i	4%
NC(=O)CC(NC(=O)c1ccc(Br)cc1)c1ccc(N2CCCCCC2)c([N+](=O)[O-])c1 (stereo not drawn)	-1.6	-2.3	-5.8	0.71	0.2	i	/
CN(C)S(=O)(=O)c1ccc(NC(=O)CCNC(=O)c2ccco2)cc1	5.3	-2.5	0.8	0.66	-1.8	i	4%
C[C@H](CO)N1C[C@H](C)[C@@H](CN(C)S(=O)(=O)c2ccc3ccccc3c2)OCc2cnnn2CCCC1=O	/	2.4	/	/	1.4&-0.8&-1.5	i	6%
CC(C)COc1ccc(C(=O)Nc2sc3c(c2C(=O)O)CC(C)(C)OC3)cc1	-20	2.3	6.8	0.65	-0.6	i	7%
Cc1cc(-c2nc3ncccc3o2)ccc1N	i	7.1	-0.1	0.74	/	/	?
COc1cccc(/C=N/N2CCOCC2)c1O	/	0.3	-6.1	/	-1.3	i	2%
N#C/C(=C/c1ccc(N2CCCCC2)o1)C(=O)NCCc1c[nH]c2ccccc12	11	106	37*	0.74	0.3	i	13%
COc1ccccc1NC(=O)C1CC(O)CN1C(=O)Oc1ccccc1 (stereo not drawn)	6.2	7.6	-3.9	0.7	2.4	i	/
CC(NC(=O)c1cc(F)c(F)c(F)c1F)c1ccc(-n2ccnc2)cc1 (stereo not drawn)	6.8	1.9	-4.4	0.69	-2.0	i	-4%
CSc1ccccc1NC(=O)C1=COCCO1	-0.1	-2.4	4.1	0.69	0.1	i	/
CC(C)Cn1cc(C(=O)NCc2cccs2)c2c3ccccc3n(C)c2c1=O	-42	0.7	4.3	0.72	/	/	11%
Cn1c(CSCc2ccc(Cl)cc2)n[nH]c1=S	5.0	2.2	3.1	0.68	-4.7	i	-9%
Cc1ccc(CCNC(=O)CN2C(=O)CSc3ccc(S(=O)(=O)N4CCOCC4)cc32)cc1	/	1.2	/	/	1.5	i	-1%
CCC(c1nnc(SCC(=O)NC2CCCCC2)n1Cc1ccccc1)N(C)C (stereo not drawn)	-1.3	-1.0	0.2	0.62	0.0	i	-4%
Cc1ccc(N2C(=O)c3ccccc3C2C(=O)c2ccc(O)cc2O)cc1 (stereo not drawn)	4.1	-2.4	-2.1	0.69	2.1	i	/
Cc1nn(-c2ccc(F)cc2)c(C)c1CN1CCN(Cc2ccccc2)C(CCO)C1 (stereo not drawn)	-0.6	-2.5	-3.1	0.7	1.7	i	/
O=C(Nc1cc(Cl)ccc1N1CCOCC1)C1CC1	0.2	-3.0	/	0.68	1.4	i	/
CC(C)CCn1c(CN2CCN(c3cccc(Cl)c3)CC2)nc2c1c(=O)n(C)c(=O)n2C	3.9	-6.1	1.0	0.76	0.5	i	/
CCn1ncc(C2=NOC(C(=O)Nc3ccc4c(c3)OCO4)C2)c1C (stereo not drawn)	1.5	0.1	1.0	0.74	/	/	-1%&-9%
COc1ccc(OC)c(NS(=O)(=O)c2cccc3cccnc23)c1	-0.1	1.1	3.8	0.65	3.5	i	1%
O=S(=O)(c1cccc(C(F)(F)F)c1)N1CCC(c2nc3ccccc3[nH]2)CC1	4.1	-1.1	3.7	0.67	-5.2	i	/
COc1ccccc1OCCNC(=O)c1ccccc1C	4.1	-1.4	-7.8	0.66	/	/	3%
COc1ccc(OC)c(NC(=O)CSc2ncnc3c2cnn3-c2ccccc2Cl)c1	1.2	2.5	-1.7	0.73	/	/	3%
O=S(=O)(Cc1ccccc1)N1CCN(c2ncccn2)CC1	-0.3	-0.8	1.1	0.67	-2.0	/	/
O=C(Nc1ccc(Br)cc1F)c1ccc2c(c1)N(Cc1ccccc1)C(=O)CS2=O (stereo not drawn)	4.6	6.4	0.1	0.73	-2.1	i	10%
Cc1ccc(N2C(=O)C3C4C=CC(CNC(=S)N5CCN(c6ccccc6)CC5)(O4)C3C2=O)cc1 (stereo not drawn)	/	4.5	4.5	/	7.9	i	1%
O=C(Nc1cccc(C(F)(F)F)c1)c1csc(-c2ccncc2)n1	0.5	-1.6	-0.2	0.62	-3.2	i	-67%
O=C(Nc1nncs1)c1cc(-c2ccco2)nc2ccccc12	-68	-4.4	/	0.7	2.2	i	4%
Cn1nc(C(=O)N2CCN(S(=O)(=O)/C=C/c3ccccc3)CC2)c2ccccc2c1=O	1.2	-3.2	3.4	0.68	-2.7	i	/
Cc1ccc(N2C(=O)CC(NCc3ccc4c(c3)OCO4)C2=O)cc1Cl (stereo not drawn)	1.7	3.5	3.6	0.75	/	/	3%
COc1ccc(Oc2ccc(S(=O)(=O)N3CCCCC3)cc2S(=O)(=O)N2CCCCC2)cc1	0.9	-0.1	0.9	0.73	5.3	i	-2%
COc1ccccc1C(=O)Nc1nsc(-c2ccccc2)n1	-2.0	2.2	0.9	0.7	-4.6	i	6%
COc1ccccc1OCCNc1nc2c(c(=O)n(C)c(=O)n2C)n1C	1.4	1.2	-2.5	0.67	/	/	17%
Cc1cccc(N(CC(=O)NCCC2=CCCCC2)S(C)(=O)=O)c1C	4.7	-2.8	/	0.72	/	/	-1%
COCCSc1ccccc1C(=O)Nc1ccc2c(c1)OCO2	1.3	3.0	4.1	0.69	-9.6	i	11%

Given as labelled records: 2 of the compounds above
compound: Cn1nc(C(=O)N2CCN(S(=O)(=O)/C=C/c3ccccc3)CC2)c2ccccc2c1=O
  UCH37 inh: 1.2
  HNF4A DNA FP: -3.2
  RanGTP-Impb inh: 3.4
  E coli growth: 0.68
  AF4-AF9 inh: -2.7
  FGF22 binding: i
  Vif A3G: /
compound: Cc1ccc(N2C(=O)CC(NCc3ccc4c(c3)OCO4)C2=O)cc1Cl (stereo not drawn)
  UCH37 inh: 1.7
  HNF4A DNA FP: 3.5
  RanGTP-Impb inh: 3.6
  E coli growth: 0.75
  AF4-AF9 inh: /
  FGF22 binding: /
  Vif A3G: 3%

(list continues)
SMILES	UCH37 inh	HNF4A DNA FP	RanGTP-Impb inh	E coli growth	AF4-AF9 inh	FGF22 binding	Vif A3G
O=C(COC(=O)CN1C(=O)c2ccccc2C1=O)Nc1cccc(F)c1	-0.3	2.3	/	0.69	-4.8	i	-2%
O=C(c1ccccc1)c1nc2c(n1O)CCCCC2	11	-1.0	-0.3	0.69	-2.1	i	-4%
CCn1c(CC(=O)Nc2ccccc2OC)nnc1SCC(=O)Nc1ccccc1F	1.2	4.3	1.9	0.7	0.8	i	2%
CCOc1ccc(C2c3c(oc4ccccc4c3=O)C(=O)N2CCCN2CCOCC2)cc1OCC (stereo not drawn)	2.9	4.9	1.4	0.8	-1.2	i	17%
Cc1onc(-c2c(F)cccc2Cl)c1C(=O)Nc1cccc(S(=O)(=O)NC2=NCCC2)c1	3.0	3.6	-1.4	0.71	-0.2	i	2%
O=C1/C(=C/c2cccs2)SC(=S)N1N1CCOCC1	2.8	2.4	-2.2	0.69	-3.1	i	0%
CC(=O)Nc1ccc(CN2CCCC(CO)(Cc3ccccc3C)C2)cc1 (stereo not drawn)	3.4	3.1	-2.6	0.69	1.2	i	0%
CN(C)S(=O)(=O)c1ccc(C(=O)OCCCN=C2NS(=O)(=O)c3ccccc32)cc1	6.3	0.8	5.6	0.71	4.7	i	-2%
Cn1c(SCC(=O)NNC(=O)c2ccc(Cl)cc2)nnc1-c1cccnc1	2.4	2.2	0.6	0.68	-2.0	i	-3%
CCC(=O)c1ccc(OCC(O)CNC(C)c2ccccc2)cc1 (stereo not drawn)	-0.3	3.2	-0.8	0.71	/	/	/
O=C1NC[C@H](CCCCN2C[C@H](Cc3ccc(O)cc3)N(Cc3ccccc3)C(=O)C2=O)N(Cc2ccccc2)C1=O	/	-2.1	/	/	2.6	i	/
CCCC(=O)Nc1nnc(-c2ccc3c(c2)OCCO3)o1	4.5	4.8	0.5	0.7	-2.2	i	7%
CC(NC(=O)CN(c1ccc(Cl)cc1)S(C)(=O)=O)c1ccccc1 (stereo not drawn)	1.0	25	5.0	0.63	-1.4	i	/
CCc1ccc(N2CC(C(=O)N3CCN(c4ccccn4)CC3)CC2=O)cc1 (stereo not drawn)	-1.1	-1.8	/	0.58	-6.7	i	0%
COc1ccc(NC(=S)NC2CCCCCC2)c(OC)c1	-0.3	-1.6	-4.5	0.7	7.2	i	/
Cc1nn(CC(=O)N2CCCC2)c(=O)c2nn(-c3ccccc3)c(C)c12	3.5	0.9	3.4	0.71	0.1	i	3%
CCOC(=O)c1ccc(NC(=S)N2CCC(C(N)=O)(N3CCCCC3)CC2)cc1	4.1	-3.1	1.2	0.72	1.2	i	3%
COC(=O)C1=C(C(=O)OC)[C@@H]2N(C)c3ccc(OC)cc3[C@@]23C[C@@H](C(=O)OC)N(S(=O)(=O)c2ccc(OC)cc2)C3=N1	/	1.4	-3.9	/	/	i	/
Fc1ccccc1OCCCCCN1CCCC1	-0.4	0.1	8.1	0.63	/	/	/
CCCN1C(=O)/C(=C/c2c(N3CCNC(=O)C3CC(=O)OCC)nc3c(C)cccn3c2=O)SC1=S (stereo not drawn)	12	3.2	-52	0.74	/	/	-15%
COc1ccc(-c2ncc(CN3CCN(CCC(C)C)C(CCO)C3)cn2)cc1 (stereo not drawn)	0.6	1.7	-0.8	0.73	2.5	i	-5%
COc1ccc(Cc2c(-c3cccc(Br)c3)nc3ccc(Cl)cn23)c(C)c1	/	17	/	/	1.3	i	/
